# Compound activity as filed in PubChem.
# Beta apoptosis = blocks beta cell apoptosis; INS-1E cytokine-induced death, ATP luminescence, 48 h; percent of positive-control rescue, neutral wells zero; protection from apoptosis, % (concentration not given with the values); 0.8% of 300,000 active;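 active = all replicates at 75% or more, or half of them and the mean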;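 note: 0% = cytokine-treated negative control wells and 100% = positive control rescue; higher means more ATP so stronger rescue from cytokine killing; wells of about 40 µL received 100 nL stock; the first replicate is given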
# UCH37 inh = inhibitors of human deubiquitinating enzyme UCH37. 0.33% of 330,000 active. inhibition, % (concentration not given with the values). purified proteasome/UCH37, Ub-AMC cleavage fluorescence;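 active = mean of two replicates above 20%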;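 note: 0% = compound-free wells with enzyme and 100% = wells lacking proteasome; stock transfer was 100 nL into about 20 µL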
# Target sequence (Q9Y5K5 whole entry, looked up): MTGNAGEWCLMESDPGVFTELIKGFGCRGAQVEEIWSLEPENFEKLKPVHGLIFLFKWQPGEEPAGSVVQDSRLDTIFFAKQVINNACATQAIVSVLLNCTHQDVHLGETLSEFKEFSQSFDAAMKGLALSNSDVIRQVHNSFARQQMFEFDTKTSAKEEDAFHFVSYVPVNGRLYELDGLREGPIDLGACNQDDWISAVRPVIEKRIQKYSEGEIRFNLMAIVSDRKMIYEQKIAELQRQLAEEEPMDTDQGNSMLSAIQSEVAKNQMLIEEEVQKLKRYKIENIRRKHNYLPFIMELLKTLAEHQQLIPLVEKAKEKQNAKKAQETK
#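 Material: human UCH37 enzyme supplied as purified proteasome complex / Amount: 0.15 nM proteasome as dispensed / Buffer or medium: pH 7.4 Tris-HCl (50 mM) with ovalbumin, ATP-MgCl2, DTT / Times: preincubation 30 min, reaction 25 min, room temperature / Technique: AMC fluorescence from Ub-AMC cleavage, excitation 355 nm, emission 460 nm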
# T cruzi inh = T. cruzi replication inhibition. T. cruzi beta-gal in NIH3T3, luminescence, 90 h. inhibition, % (test concentration not listed). 1.4% of 300,000 active;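 active = mean inhibition across valid replicates above about 55%, limit read from the data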;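 note: signal also drops with host cell toxicity which is not excluded here; 0% = plate median of DMSO wells and 100% = zero luminescence signal; higher percent means less beta-gal luminescence so fewer parasites; stock transfer was 50 nL into about 50 µL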
# Ecoli rRNA inh = inhibits bacterial ribosomal RNA function over humanized ribosomes; E. coli WT GFP vs humanized-ribosome RFP mutants, fluorescence, 24 h; hits give low values; DMSO median 0, no signal -100; 1.6% of 350,000 active; AID 720706; GFP signal change (wild-type ribosome), % (no concentration beside the values);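 active = significant combined selectivity score with lowered wild-type GFP, culture density cut under 30%, mutant RFP and density less affected; inactive = any of these conditions unmet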; note: one replicate is shown; some compounds called inactive have numbers as strong as hits
# MLL AF4-AF9 inh = blocks AF4 peptide binding to human AF9; P42568; AID 651704; AlphaScreen, biotin-AF4 peptide binding to FLAG-AF9; inhibition, % at 10 µM; 0.47% of 350,000 active;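 active = every replicate reaching a set inhibition limit, whatever the replicate mean, cut at about 25% in these data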;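 note: 0% = plate neutral control median and 100% = total signal loss; the record names both 10 and 1 µM as test concentration; the first replicate is given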
# Target sequence (P42568 whole entry, looked up): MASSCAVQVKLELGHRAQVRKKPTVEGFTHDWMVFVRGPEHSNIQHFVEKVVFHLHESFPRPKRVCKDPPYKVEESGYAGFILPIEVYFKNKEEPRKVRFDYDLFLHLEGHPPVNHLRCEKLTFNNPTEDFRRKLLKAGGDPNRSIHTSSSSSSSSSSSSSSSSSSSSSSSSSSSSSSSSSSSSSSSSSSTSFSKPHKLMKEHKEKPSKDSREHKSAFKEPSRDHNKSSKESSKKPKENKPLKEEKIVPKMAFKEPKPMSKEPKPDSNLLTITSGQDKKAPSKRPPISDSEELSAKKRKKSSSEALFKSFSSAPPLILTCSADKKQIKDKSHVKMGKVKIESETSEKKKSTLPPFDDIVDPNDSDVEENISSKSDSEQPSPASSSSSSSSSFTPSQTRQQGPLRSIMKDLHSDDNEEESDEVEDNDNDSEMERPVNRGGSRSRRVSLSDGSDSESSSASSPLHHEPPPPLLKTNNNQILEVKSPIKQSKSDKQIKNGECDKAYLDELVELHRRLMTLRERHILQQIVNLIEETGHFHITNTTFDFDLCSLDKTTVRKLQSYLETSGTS
# E coli growth = blocks Escherichia coli growth; OD600, 23 h; hits give low values; OD600 absorbance (test concentration not listed); 0.21% of 330,000 active;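 active = OD600 absorbance below the run mean of sample wells minus 3.6 SD, in any replicate, cut at about 0.56 in these data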;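 note: stock transfer was 300 nL into about 60 µL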
# FGF22 binding = binders of recombinant human FGF22 by thermal shift | Q9HCT0 | SYPRO orange fluorescence; percent of sucrose octasulfate shift, DMSO zero | calls only at 9.99 µM | 1.5% of 340,000 active | AID 651658;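 active = melting point raised past a set limit in the mean and every replicate; three in four hits are not shown here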
# Bfl-1 A1 inh = inhibitors of the anti-apoptotic protein A1, read as caspase activation | MEF A1-2A-BIM cells, Caspase-Glo 3/7 luminescence, 3 h; percent of clofoctol response, vehicle zero | caspase activation, % (concentration not given with the values) | 0.066% of 330,000 active | AID 2462;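 active = over half of replicate activation scores above 10%, or exactly half above 10 with the replicate mean above 10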;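 note: wells of about 30 µL received 50 nL stock; many hits fall short of the cut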
# Ecoli rRNA inh OD600 = also measured in Ecoli rRNA inh; calls as there; OD600 change, %; measured here: OD600 growth;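 optical density of the mix in the first replicate; 0 = DMSO median and -100 = no signal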
# Ecoli rRNA inh RFP = also measured in Ecoli rRNA inh; calls as there; RFP signal change, %; measured here: RFP humanized mutant strains;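 first replicate; 0 = DMSO median and -100 = no signal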
# * marks the source's active call; other numbers are inactive results; i = inactive; . = no result given.
SMILES,Beta apoptosis,UCH37 inh,T cruzi inh,Ecoli rRNA inh,Ecoli rRNA inh OD600,Ecoli rRNA inh RFP,MLL AF4-AF9 inh,E coli growth,FGF22 binding,Bfl-1 A1 inh
COc1ccc(C2C(C(=O)c3sc(C)nc3C)=C(O)C(=O)N2CCN(C)C)cc1OC (centres undefined),-2,9.9,0,.,.,.,.,0.79,.,1.0
O=C(CCCCCN1C(=O)c2ccccc2C1=O)NC1CCCC1,-3,0.3,0,.,.,.,.,0.78,.,-0.3
Cc1ccc(NC(=O)CN(C)C(=O)Cc2ccc(Cl)cc2Cl)cc1,0,2.0,12,2,-18,4.1,-2.5,0.63,i,0.6
COC(=O)c1cc(S(=O)(=O)NCc2ccccc2)cn1C,.,3.5,4,1,6,-2.4,-1.5,0.73,i,.
COc1ccc(C)cc1-n1nc2ccccc2n1,1,-5.8,4,1,-7,-0.3,-1.8,0.67,i,0.4
COCCN(CCOC)Cc1cc(=O)oc2cc3c(cc12)CCC3,-4,1.9,-6,.,.,.,.,0.75,.,0.4
CCOc1ccccc1C1C(C(=O)Nc2ccc(OC)cc2)=C(C)Nc2nc(CCCO)nn21 (centres undefined),-7,-4.5,-5,-5,5,1.9,-3.2,0.77,.,-1.8
COc1ccc(Cl)cc1C(=O)N(Cc1nc(-c2cccc(C)c2)no1)C(C)C,4,1.8,27,-10,-11,-1.3,-6.3,0.73,i,1.0
Cc1ccc(S(=O)(=O)N(C)C)cc1NC(=S)N(CCC#N)Cc1cccnc1,6,2.1,-2,11,17,0.4,-6.3,0.67,i,0.8
CN(C)CCNC(=O)Nc1cccc(Cl)c1Cl,-18,0.8,22,.,.,.,.,0.67,.,0.1
CC1CC(C)CN(CCCNC(=O)c2ccc3c(SCC(=O)O)c4c(nc3c2)CCC4)C1 (centres undefined),-1,2.3,-2,14,8,-2.5,-8.6,0.67,i,0.1
CCN(CCn1cccn1)C(=O)c1cc(COc2ccc(F)cc2Cl)on1,-1,-1.2,4,-16,-10,-0.4,1.9,0.66,i,-1.7
O=C(c1cc2sccc2n1Cc1ccc(F)cc1)N1CCc2ccccc21,12,4.1,32,.,.,.,.,0.74,.,1.3
CN(C)c1ccc(CN(C(=O)C2COc3ccccc3O2)C2CCS(=O)(=O)C2)cc1 (centres undefined),-3,0.2,-1,.,.,.,.,0.71,.,1.9
CCCC(=O)NC(C)c1nc2ccccc2n1C (centres undefined),-5,0.6,-5,5,8,-1.1,-0.9,0.66,i,-0.2

# Ordered by SMILES length (largest number first): 10 of the compounds above.
SMILES,Beta apoptosis,UCH37 inh,T cruzi inh,Ecoli rRNA inh,Ecoli rRNA inh OD600,Ecoli rRNA inh RFP,MLL AF4-AF9 inh,E coli growth,FGF22 binding,Bfl-1 A1 inh
CCOc1ccccc1C1C(C(=O)Nc2ccc(OC)cc2)=C(C)Nc2nc(CCCO)nn21 (centres undefined),-7,-4.5,-5,-5,5,1.9,-3.2,0.77,.,-1.8
CN(C)c1ccc(CN(C(=O)C2COc3ccccc3O2)C2CCS(=O)(=O)C2)cc1 (centres undefined),-3,0.2,-1,.,.,.,.,0.71,.,1.9
COc1ccc(Cl)cc1C(=O)N(Cc1nc(-c2cccc(C)c2)no1)C(C)C,4,1.8,27,-10,-11,-1.3,-6.3,0.73,i,1.0
Cc1ccc(S(=O)(=O)N(C)C)cc1NC(=S)N(CCC#N)Cc1cccnc1,6,2.1,-2,11,17,0.4,-6.3,0.67,i,0.8
CCN(CCn1cccn1)C(=O)c1cc(COc2ccc(F)cc2Cl)on1,-1,-1.2,4,-16,-10,-0.4,1.9,0.66,i,-1.7
O=C(c1cc2sccc2n1Cc1ccc(F)cc1)N1CCc2ccccc21,12,4.1,32,.,.,.,.,0.74,.,1.3
COCCN(CCOC)Cc1cc(=O)oc2cc3c(cc12)CCC3,-4,1.9,-6,.,.,.,.,0.75,.,0.4
COC(=O)c1cc(S(=O)(=O)NCc2ccccc2)cn1C,.,3.5,4,1,6,-2.4,-1.5,0.73,i,.
CN(C)CCNC(=O)Nc1cccc(Cl)c1Cl,-18,0.8,22,.,.,.,.,0.67,.,0.1
CCCC(=O)NC(C)c1nc2ccccc2n1C (centres undefined),-5,0.6,-5,5,8,-1.1,-0.9,0.66,i,-0.2

# Remaining list, next part:
SMILES,Beta apoptosis,UCH37 inh,T cruzi inh,Ecoli rRNA inh,Ecoli rRNA inh OD600,Ecoli rRNA inh RFP,MLL AF4-AF9 inh,E coli growth,FGF22 binding,Bfl-1 A1 inh
[O-][n+]1ccc(C(O)c2ccccc2)cc1 (centres undefined),-5,1.0,3,5,4,-2.2,0.0,0.71,i,-1.5
Cc1occc1-c1nnc(SCC(=O)NCCc2ccccc2)o1,-1,-0.8,-16,-1,-21,-0.6,-3.1,0.66,i,0.2
N#Cc1ccc(CN2CCN(C(=O)CCNS(=O)(=O)c3ccc(F)c(F)c3)CC2)cc1,-3,5.4,.,-1,-4,-1.0,3.2,0.67,i,-0.4
Cc1ccc([N+](=O)[O-])cc1S(=O)(=O)NCc1cccnc1,-6,0.1,5,.,.,.,.,0.69,.,-0.5
CSc1ccc(/C=N/NC(=O)CN2CCN(Cc3ccc(Cl)cc3)CC2)cc1,-15,.,-11,.,.,.,4.0,.,i,0.5
CCOC(=O)c1c(C)[nH]c(C)c1S(=O)(=O)NCC1CCN(Cc2ccccc2OC)CC1,1,0.5,7,5,6,0.0,4.5,0.7,i,0.4
CCOc1ccc(NS(=O)(=O)c2ccc3c(c2)CCN3C(C)=O)cc1,5,0.2,10,9,1,1.5,-0.4,0.7,i,0.6
O=C(CN1C(=O)c2ccccc2S1(=O)=O)NCCc1ccc(F)cc1,-8,1.9,.,5,9,-1.2,1.8,0.66,i,1.0
COc1ccc([C@@H]2CC=C(C(=O)O)CN2S(=O)(=O)c2ccc(C)cc2)cc1OC,-2,1.4,.,-8,-7,-8.5,1.8,.,i,-0.4
Cc1ccc(NC(=O)C(=O)c2c[nH]c3ccccc23)cc1,-1,0.8,10,6,11,3.1,-0.6,0.66,i,-4.3
COC(CNC(=O)CSCc1nc(-c2ccc(SC)cc2)oc1C)OC,-1,-1.1,-13,-20,-37,-5.7,1.7,0.7,i,0.4
O=C(CCSCc1ccccc1Cl)NCc1ccco1,1,3.3,9,13,5,0.1,-1.6,0.68,i,0.0
CCNC(=O)/N=C1/NC(=O)C(C(C)C)O1 (centres undefined),5,4.4,8,.,.,.,.,0.69,.,-0.4
COC(=O)c1ccc(CSc2nc3ccc(S(N)(=O)=O)cc3[nH]2)cc1,2,-0.1,-2,0,0,0.4,-3.6,0.64,i,-0.2
O=C1C2CCCCN2C(=O)N1CCCCN1CCN(c2cccc(Br)c2)CC1 (centres undefined),-4,-0.5,3,-2,3,0.7,4.0,0.7,i,0.5
OCCN(Cc1ccccc1)Cc1cccc(F)c1,-4,1.0,-5,.,.,.,.,0.71,.,0.5
CCc1ccc(NC(=O)N(CCN(C)C)C(C)c2cccnc2)cc1 (centres undefined),.,3.5,10,9,17,0.6,-3.5,0.76,i,1.6
Cc1cc(C)c(C)c(C(=O)C2OC(=O)C(C)(C)C(=O)C2(C)C)c1C (centres undefined),-9,1.9,-1,5,7,-5.3,-19,0.72,i,0.2
O=C(O)c1cccc(NC(=O)C2CC(=O)N(Cc3ccccc3)C2)c1 (centres undefined),3,-2.0,-18,.,.,.,.,0.61,.,0.1
O=C(CCCSc1ccccc1)Nc1nc(-c2ccccn2)cs1,-6,4.3,-7,.,.,.,.,0.67,.,-0.5
NS(=O)(=O)c1cc(C(=O)OCC(=O)N2CCOCC2)ccc1Cl,0,2.5,-8,4,8,-0.9,-8.1,0.69,i,0.1
Cc1c(NC2(c3nnnn3-c3ccc(Br)cc3)CCCCC2)c(=O)n(-c2ccccc2)n1C,1,1.9,6,.,.,.,.,0.63,.,-0.2
COc1ccc(C(=O)Nc2ccc3c(c2)nc(CCNC(=O)c2ccco2)n3C)cc1,.,-12,-2,.,.,.,-1.9,0.67,i,-0.1
N#Cc1c(-c2cccnc2)cc(-c2ccccc2)nc1N,0,i,-12,1,4,0.4,-0.8,0.66,i,-0.4
Cc1ccc(N(C)C(=O)CC(C)S(=O)(=O)c2ccc3c(c2)NC(=O)CO3)cc1 (centres undefined),-3,-0.1,-18,3,0,-3.5,-5.8,0.66,i,0.3
NC(=O)C1=C[C@H](c2ccc(C(F)(F)F)cc2)C[C@H](OCCCCO)O1,-5,3.2,-28,9,8,15,-1.5,.,i,-0.1
O=C(Nc1ccccc1)N1CCN(c2ncccn2)CC1,-10,0.8,6,.,.,.,.,0.7,.,-0.7
CC(C)Oc1ccc(CCc2n[nH]c(=S)n2Cc2ccccc2)cc1,1,2.6,1,.,.,.,.,0.64,.,0.3
Cc1cc(C)cc(C(=O)NC(CC(N)=O)c2ccc(N3CCC(Cc4ccccc4)CC3)c([N+](=O)[O-])c2)c1 (centres undefined),-25,1.6,2,7,8,8.7,.,0.73,i,-0.3
O=S(=O)(c1ccc(Cl)cc1)N1CCCN(c2ccc(C(F)(F)F)cn2)CC1,-4,6.3,19,-15,-12,-2.6,-3.5,0.7,i,-0.3
O=C(COC(=O)c1cnccn1)Nc1ccccc1-c1ccccc1,-1,0.7,.,4,9,-2.9,2.0,0.63,i,2.4
Cc1cccn2c(CNCCSc3nccn3C)c(C(=O)N3CCCCC3)nc12,-7,4.5,11,6,7,12,-2.2,0.73,i,0.8
N#CCCn1cnc2c(=S)nc[nH]c21,4,3.9,-4,16,9,0.2,.,0.71,.,-0.2
Cc1nc2nc(Cc3ccccc3)nn2c(C)c1Cl,-7,0.0,-20,.,.,.,.,0.72,.,-1.0
N#Cc1ccc(COC(=O)c2cnc(Cl)c(Cl)c2)cc1,-4,1.2,-4,1,6,-2.7,-5.4,0.64,i,0.5
COc1ccc(CC(=O)N2CCN=C2SC)cc1,1,3.7,-10,11,8,2.1,-0.4,0.73,i,0.1
CCc1[nH]nc(C(=O)N2CCCC(Nc3ccc(C(C)C)cc3)C2)c1C (centres undefined),-3,.,1,-3,-15,1.7,3.3,.,i,-0.6
CCCN(CCC)CCCNC(=O)c1ccc2c(Cl)c3c(nc2c1)CCC3,1,3.9,28,-1,10,1.5,2.0,0.63,i,0.7

# Some of the compounds tested; the hit share may differ from the screen's.
